# Screens: PubChem BioAssay, Broad Institute
# Ecoli rRNA inh – inhibits bacterial ribosomal RNA function over humanized ribosomes | AID 720706 | GFP signal change (wild-type ribosome), % (test concentration not listed) | E. coli WT GFP vs humanized-ribosome RFP mutants, fluorescence, 24 h; stronger effect = lower value; DMSO median 0, no signal -100 | actives 1.6% (n = 350,000);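 active = significant combined selectivity score with lowered wild-type GFP, culture density cut under 30%, mutant RFP and density less affected; inactive = any of these conditions unmet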; also: one replicate is shown; some compounds called inactive have numbers as strong as hits
# MLL AF4-AF9 inh – MLL-AF4/AF9 protein interaction inhibition; AlphaScreen, biotin-AF4 peptide binding to FLAG-AF9; P42568; actives 0.47% (n = 350,000); AID 651704; inhibition, % at 10 µM;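 active = every replicate reaching a set inhibition limit, whatever the replicate mean, cut at about 25% in these data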;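 also: 0% = plate neutral control median and 100% = total signal loss; the record names both 10 and 1 µM as test concentration; the first replicate is given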
# Target sequence (P42568 whole entry, looked up): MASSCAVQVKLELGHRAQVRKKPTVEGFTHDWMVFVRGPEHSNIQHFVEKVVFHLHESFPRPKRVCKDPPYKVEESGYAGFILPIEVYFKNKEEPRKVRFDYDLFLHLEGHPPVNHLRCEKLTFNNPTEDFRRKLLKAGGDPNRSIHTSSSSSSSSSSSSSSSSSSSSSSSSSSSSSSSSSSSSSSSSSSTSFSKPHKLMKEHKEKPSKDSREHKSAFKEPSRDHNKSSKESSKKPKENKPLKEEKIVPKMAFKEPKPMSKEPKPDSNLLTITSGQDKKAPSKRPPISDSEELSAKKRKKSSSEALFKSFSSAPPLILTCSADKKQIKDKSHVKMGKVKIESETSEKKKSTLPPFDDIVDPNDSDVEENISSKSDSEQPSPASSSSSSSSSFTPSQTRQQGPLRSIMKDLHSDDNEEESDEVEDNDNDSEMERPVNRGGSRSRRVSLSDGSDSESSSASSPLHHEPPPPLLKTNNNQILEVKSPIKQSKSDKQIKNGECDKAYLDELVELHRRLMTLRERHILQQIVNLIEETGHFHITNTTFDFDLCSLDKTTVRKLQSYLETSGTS
# FGF22 binding – FGF22 (human) thermal shift binding | actives 1.5% (n = 340,000) | Q9HCT0 | calls only at 9.99 µM | recombinant FGF22 thermal shift, SYPRO orange fluorescence; percent of sucrose octasulfate shift, DMSO zero | AID 651658;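 active = melting point raised past a set limit in the mean and every replicate; three in four hits are not shown here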
# Target sequence (Q9HCT0 whole entry, looked up): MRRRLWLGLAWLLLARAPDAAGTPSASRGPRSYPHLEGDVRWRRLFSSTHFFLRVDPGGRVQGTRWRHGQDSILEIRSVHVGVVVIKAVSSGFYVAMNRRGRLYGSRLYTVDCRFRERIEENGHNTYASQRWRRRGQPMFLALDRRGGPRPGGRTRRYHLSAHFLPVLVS
# Ecoli rRNA inh OD600 – recorded beside Ecoli rRNA inh, whose call it bears; OD600 change, %; measured here: OD600 growth;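 optical density of the mix in the first replicate; 0 = DMSO median and -100 = no signal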
# Ecoli rRNA inh RFP – second read-out of Ecoli rRNA inh, no call of its own (marks repeat the call); RFP signal change, %; measured here: RFP humanized mutant strains;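 first replicate; 0 = DMSO median and -100 = no signal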
# An asterisk follows results filed as active; i = inactive. These rows are one share of the data; rates above refer to the full screens.
SMILES,Ecoli rRNA inh,Ecoli rRNA inh OD600,Ecoli rRNA inh RFP,MLL AF4-AF9 inh,FGF22 binding
CC(C)CCN1C(=O)c2ccccc2C1c1nnnn1-c1ccc2c(c1)OCCO2 (centres undefined),-8.0,-10.1,3.3,-1.3,i
CO[C@H]1CN(C)C(=O)c2cc(NC(C)=O)ccc2OC[C@H](C)N(C(=O)c2ccc(F)cc2)C[C@@H]1C,0.0,-3.7,-0.6,0.9,i
O=S(=O)(N[C@@H]1CC[C@@H](CCn2cc(-c3ccccn3)nn2)O[C@H]1CO)c1cccc(F)c1,-0.8,1.5,-0.5,1.2,i
COCC(=O)N1C[C@H](C)[C@H](OC)CN(C)C(=O)c2ccc(NC(=O)NC(C)C)cc2OC[C@@H]1C,2.1,0.9,-4.1,-3.0,i
O=C(CN1CCOCC1)N[C@@H]1CC[C@@H](CCNC(=O)C2CCCCC2)O[C@@H]1CO,8.9,10.4,-2.3,-0.1,i
Cn1c(=O)c2cc(NC(=S)NC3CC3)ccc2n1C/C=C/c1ccccc1,3.2,4.8,-0.3,2.5,i
CC=Cc1ccc2n(c1=O)C[C@H]1[C@H](CO)[C@@H](C(=O)N[C@@H](C)c3ccccc3)N(C(=O)c3cnccn3)[C@@H]21 (mixture of isomers),0.5,-0.3,-0.3,-2.8,i
CCC(=O)N1CCCC(C)(C(=O)Nc2ccc(OC)c(F)c2)C1 (centres undefined),19.6,24.9,0.9,-3.2,i
C[C@@H]1CCCCO[C@@H](CN(C)Cc2ccc(C(F)(F)F)cc2)[C@H](C)CN([C@H](C)CO)C(=O)c2cc(NC(=O)NC3CCCCC3)ccc2O1,1.3,8.7,3.8,-2.1,i
CNC(=O)C[C@@H]1CC[C@@H]2[C@H](COc3ccc(NC(=O)Nc4ccc(C)cc4)cc3C(=O)N2C)O1,-1.7,-3.2,-1.8,-1.7,i
O=C(C[C@H]1CC[C@H]2[C@@H](COC[C@H](O)CN2C(=O)c2cccnc2)O1)NCc1ccc(-c2ccccc2)cc1,1.0,-1.6,13.7,-3.3,i
CN1C(=O)c2cc(NC(=O)Nc3cccc(Cl)c3)ccc2OC[C@@H]2O[C@@H](CC(=O)NCCc3ccncc3)CC[C@@H]21,-6.2,-15.1,1.0,0.9,i
COc1ccc(S(=O)(=O)Nc2ccc3c(c2)C(=O)N([C@@H](C)CO)C[C@@H](C)[C@@H](CN(C)C(=O)c2ccncc2)OCCCC[C@@H](C)O3)cc1,-2.2,3.2,-4.5,-2.6,i
C[C@@H]1CN([C@@H](C)CO)C(=O)c2cccc(NS(=O)(=O)c3ccccc3)c2O[C@@H]1CN(C)Cc1ccccc1,-0.5,-2.7,-1.6,-2.9,i
COc1cc(Cl)ccc1OC1(C)CCN(Cc2c(F)cccc2F)C1 (centres undefined),-29.7,-35.8,-4.2,1.6,i
C[C@@H]1CN([C@@H](C)CO)C(=O)c2cc(NC(=O)Nc3ccc(F)cc3)ccc2O[C@@H](C)CCCCO[C@@H]1CN(C)C(=O)Nc1ccc2c(c1)OCO2,1.2,2.6,-1.9,1.0,i
CO[C@@H](CN(C)C(=O)c1cnccn1)[C@H](C)CN([C@H](C)CO)S(=O)(=O)c1ccccc1,-1.6,-10.9,-0.4,0.3,i
COc1cccc(S(=O)(=O)N[C@@H]2C=C[C@@H](CC(=O)NCc3ccccc3)O[C@H]2CO)c1,1.7,5.6,-0.3,-4.9,i
CO[C@H]1CN(C)C(=O)c2cc(NS(=O)(=O)Cc3ccccc3)ccc2OC[C@H](C)NC[C@@H]1C,0.7,-1.1,-1.5,2.0,i
Cn1cnc(S(=O)(=O)N[C@H]2CC[C@@H](CC(=O)Nc3ccc(-c4ccccc4)cc3)O[C@H]2CO)c1,-4.3,-1.7,3.8,-2.4,i

# An excerpt from above in order of their number in Ecoli rRNA inh OD600, lowest first:
SMILES	Ecoli rRNA inh OD600
COc1cc(Cl)ccc1OC1(C)CCN(Cc2c(F)cccc2F)C1 (centres undefined)	-35.8
CO[C@H]1CN(C)C(=O)c2cc(NS(=O)(=O)Cc3ccccc3)ccc2OC[C@H](C)NC[C@@H]1C	-1.1
COc1ccc(S(=O)(=O)Nc2ccc3c(c2)C(=O)N([C@@H](C)CO)C[C@@H](C)[C@@H](CN(C)C(=O)c2ccncc2)OCCCC[C@@H](C)O3)cc1	3.2
O=C(CN1CCOCC1)N[C@@H]1CC[C@@H](CCNC(=O)C2CCCCC2)O[C@@H]1CO	10.4

# Next compounds.
SMILES,Ecoli rRNA inh,Ecoli rRNA inh OD600,Ecoli rRNA inh RFP,MLL AF4-AF9 inh,FGF22 binding
CO[C@@H]1CN(C)C(=O)c2ccc(NS(C)(=O)=O)cc2OC[C@H](C)N(Cc2nccs2)C[C@@H]1C,-1.2,0.4,-1.2,-3.9,i
COc1ccc(NC(=O)N(C)C[C@H]2Oc3ccc(NC(=O)c4ccncc4)cc3CC(=O)N([C@H](C)CO)C[C@@H]2C)cc1,2.4,0.8,-3.8,-1.9,i
C[C@H](CO)N1C[C@H](C)[C@@H](CN(C)Cc2ccc(Cl)c(Cl)c2)Oc2ccc(NC(=O)CCC(F)(F)F)cc2C1=O,-3.3,-9.4,0.3,2.3,i
C[C@@H]1CCCCO[C@@H](CN(C)C(=O)c2ccncc2)[C@H](C)CN([C@H](C)CO)C(=O)c2cc(NC(=O)c3ccccc3)ccc2O1,1.8,8.0,1.8,4.8,i
COC(=O)[C@H]1[C@H](CO)[C@H]2Cn3c(ccc(-c4ccccc4OC)c3=O)[C@H]2N1CC1CCOCC1,3.1,2.7,1.4,-1.1,i
CCCC(=O)Nc1ccc2c(c1)OC[C@@H](C)NC[C@H](C)[C@@H](OC)CN(C)C2=O,0.7,1.3,0.2,-4.6,i
OC(Cc1ccccc1)c1ncc(-c2ccc(Cl)cc2)[nH]1 (centres undefined),-5.7,-12.5,-2.3,-1.1,i
Cn1cnc(S(=O)(=O)N2CCCCN3[C@H](CO)[C@H](c4ccc(-c5ccc(F)cc5)cc4)[C@@H]3C2)c1,1.2,2.5,1.2,0.1,i
O=C(C[C@@H]1CC[C@H]2[C@@H](COC[C@H](O)CN2S(=O)(=O)c2ccccc2)O1)Nc1ccc(-c2ccccc2)cc1,3.5,-17.4,20.9,-1.6,i
C[C@H](O)C#Cc1cnc2c(c1)C(=O)N([C@@H](C)CO)C[C@@H](C)[C@H](CN(C)Cc1cccc(C(=O)O)c1)O2,6.4,3.4,-2.0,-5.8,i
C[C@H](CO)N1C[C@H](C)[C@H](CN(C)S(=O)(=O)c2ccccc2)OCCCC[C@H](C)Oc2ccc(NS(C)(=O)=O)cc2C1=O,-9.0,-10.3,-0.6,1.3,i
CCS(=O)(=O)N1CC2(C1)CN(S(=O)(=O)c1cccc(OC)c1)[C@@H](CO)c1[nH]c3cc(OC)ccc3c12,-6.1,-16.8,-2.1,-1.7,i
Cc1ccc(S(=O)(=O)N(C)C[C@H]2Oc3c(NC(=O)Nc4cccc5ccccc45)cccc3C(=O)N([C@H](C)CO)C[C@H]2C)cc1,0.3,2.5,-1.3,-1.5,i
C[C@@H]1CN([C@H](C)CO)C(=O)Cc2cc(NS(=O)(=O)c3cn(C)cn3)ccc2O[C@@H]1CN(C)Cc1ccc(C(F)(F)F)cc1,-1.2,-10.5,-2.0,-0.6,i
COc1ccc(S(=O)(=O)Nc2ccc3c(c2)C(=O)N([C@H](C)CO)C[C@H](C)[C@@H](CN(C)C(=O)Nc2c(C)noc2C)OCCCC[C@@H](C)O3)cc1,0.9,2.8,-3.6,-1.5,i
C[C@@H]1CN([C@H](C)CO)C(=O)c2cc(C#Cc3ccccc3F)cnc2O[C@@H]1CN(C)C,2.2,5.0,-0.6,5.4,i
COc1ccccc1CCn1cnc(-c2ccc(OC)c(OC)c2)c1C(C)C,-45.1,-78.2,-15.7,21.4,i
COc1ccc(S(=O)(=O)N(C)C[C@@H]2OCCCC[C@H](C)Oc3ccc(NS(=O)(=O)c4cccs4)cc3C(=O)N([C@H](C)CO)C[C@@H]2C)cc1,-1.6,-2.7,-0.1,4.0,i
O=C(C[C@@H]1CC[C@@H]2[C@H](COC[C@H](O)CN2C(=O)c2ccncc2)O1)Nc1ccc(-c2ccccc2)cc1,-4.4,-14.2,3.1,1.0,i
C[C@H]1CN([C@@H](C)CO)C(=O)c2cc(NS(=O)(=O)c3cn(C)cn3)ccc2O[C@H]1CN(C)Cc1ccncc1,0.3,6.8,-1.9,-4.1,i

# Filtered by structure: those above containing a CF3 group (3)
SMILES,Ecoli rRNA inh,Ecoli rRNA inh OD600,Ecoli rRNA inh RFP,MLL AF4-AF9 inh,FGF22 binding
C[C@@H]1CCCCO[C@@H](CN(C)Cc2ccc(C(F)(F)F)cc2)[C@H](C)CN([C@H](C)CO)C(=O)c2cc(NC(=O)NC3CCCCC3)ccc2O1,1.3,8.7,3.8,-2.1,i
C[C@H](CO)N1C[C@H](C)[C@@H](CN(C)Cc2ccc(Cl)c(Cl)c2)Oc2ccc(NC(=O)CCC(F)(F)F)cc2C1=O,-3.3,-9.4,0.3,2.3,i
C[C@@H]1CN([C@H](C)CO)C(=O)Cc2cc(NS(=O)(=O)c3cn(C)cn3)ccc2O[C@@H]1CN(C)Cc1ccc(C(F)(F)F)cc1,-1.2,-10.5,-2.0,-0.6,i

# More records.
SMILES,Ecoli rRNA inh,Ecoli rRNA inh OD600,Ecoli rRNA inh RFP,MLL AF4-AF9 inh,FGF22 binding
CC(C)CC#Cc1ccc2c(c1)O[C@@H](CN(C)C(=O)C1CCOCC1)[C@@H](C)CN([C@@H](C)CO)S2(=O)=O,-5.2,-8.1,2.9,-1.3,i
C[C@@H]1CN([C@H](C)CO)S(=O)(=O)c2ccc(C#CC3CC3)cc2O[C@H]1CN(C)Cc1cccnc1,-48.5,-70.4,-1.4,11.7,i
COc1ccc(OCCN2CCC(C(=O)NC(c3ccc(C)cc3)c3ccccn3)CC2)cc1 (centres undefined),12.2,5.2,14.2,7.2,i
CCC(=O)N1CCCC(C(=O)NCc2ccc(C(C)C)cc2)CC1 (centres undefined),-0.3,0.2,-0.3,0.3,i
C[C@H]1CN([C@@H](C)CO)C(=O)c2cc(NS(=O)(=O)c3ccccc3)ccc2O[C@@H]1CN(C)Cc1ccc(-c2ccccc2)cc1,3.9,-14.0,8.4,-0.7,i
COC(=O)C[C@@H]1CC[C@@H]2[C@@H](COc3ccc(NC(=O)Nc4ccc(C#N)cc4)cc3C(=O)N2C)O1,-7.1,-19.4,2.5,-12.0,i
C[C@H]1CN([C@@H](C)CO)C(=O)Cc2cc(NS(=O)(=O)c3ccc(Cl)cc3)ccc2O[C@H]1CN(C)Cc1ccc2c(c1)OCO2,2.9,-37.8,21.5,-3.8,i
C[C@@H]1CN([C@H](C)CO)S(=O)(=O)c2ccc(C#Cc3cccnc3)cc2O[C@H]1CN(C)CC1CCCC1,-9.6,-8.7,5.2,3.1,i
CN1C(=O)c2cc(NC(=O)Cc3cccs3)ccc2OC[C@@H]2O[C@H](CC(=O)NCCCN3CCOCC3)CC[C@H]21,-1.8,2.4,-2.1,-1.0,i
Cc1noc(C)c1NC(=O)Nc1ccc2c(c1)C(=O)N([C@H](C)CO)C[C@@H](C)[C@H](CN(C)C(=O)Nc1ccc3c(c1)OCO3)O2,3.8,11.2,-0.1,-2.2,i
COCOc1cccc(CN2CCC2(C)C(=O)Nc2ccc3c(c2)OCO3)c1 (centres undefined),-33.1,-59.6,-9.8,2.5,i
CCCNC(=O)Nc1ccc2c(c1)C(=O)N(C)[C@@H]1CC[C@H](CC(=O)NCC3CCCCC3)O[C@@H]1CO2,-6.0,-11.4,2.1,-1.1,i
COc1ccc(NC(=O)Nc2cccc3c2O[C@H](CN(C)Cc2ccc4c(c2)OCO4)[C@@H](C)CN([C@@H](C)CO)C3=O)cc1,-4.5,0.9,2.3,-5.0,i
CCN(CC)C(=O)C1=C(C)N(Cc2ccc(F)cc2)C(=O)C(CC(=O)NCCCCc2ccccc2)C1 (centres undefined),-26.8,-44.1,-4.9,3.1,i
C/C=C/c1ccc2c(c1)O[C@H](CN(C)Cc1ccccn1)[C@H](C)CN([C@@H](C)CO)S2(=O)=O,4.6,-8.0,-1.9,-0.8,i
COc1ccc(CN2CCC[C@]3(N[C@H](c4ccc(OC)cc4)[C@@H]4C(=O)N(C)C(=O)[C@@H]43)C2=O)cc1,3.3,-0.5,-6.7,2.2,i
CC1(C(=O)NS(=O)(=O)Cc2ccccc2C(F)(F)F)CCN1C(=O)Cc1ccccc1 (centres undefined),-4.6,2.7,-2.5,-2.2,i
Cc1ccc2ccccc2c1CSc1nc(N)nc2c1ncn2CC(C)C,-29.8*,-14.8*,-7.6*,-6.2,i
O=C1CN(C(=O)CN2CCN(S(=O)(=O)c3ccccc3F)CC2)c2ccccc2N1,4.8,4.1,-1.2,3.7,i
Cn1cnc(S(=O)(=O)N[C@H]2CC[C@H](CC(=O)NCC3CC3)O[C@@H]2CO)c1,0.2,-4.8,-2.7,0.8,i
C[C@H](CO)N1C[C@H](C)[C@@H](CN(C)C(=O)Cc2ccncc2)Oc2ncc(C#Cc3ccccc3F)cc2C1=O,1.2,-6.6,4.4,2.6,i
C[C@@H]1CN([C@@H](C)CO)C(=O)c2cc(NC(=O)Cc3ccccc3)ccc2O[C@@H]1CN(C)Cc1ccncc1,0.3,-5.3,0.2,-7.2,i
C[C@H](CO)N1C[C@H](C)[C@H](CN(C)S(=O)(=O)c2cccs2)Oc2ncc(-c3cccc(F)c3)cc2C1=O,-0.9,-0.3,5.8,-0.9,i
